miR-21 reporter – miR-21 reporter, rising signal; HeLa miR-21 FLuc reporter, luciferase, 48 h; Potency, µM (series often up to 38.3 µM), without a hit: at the highest dose reporter change, positive = more light; 340,000 tested, under 10 active; active = well fitted rising curve with a large enough effect; inconclusive = small, poorly fitted or top-dose-only effect; inactive = no such curve, though single readings can be large or run the other way;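 note: % of control where 0% means no effect; miR-21 action dims this reporter so a rising signal means less miR-21 action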
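HeLa miR-21-FLuc reporter line, endogenous miR-21; 2000 cells/well in DMEM/10% FBS; compound titration up to ~40uM final, 48 h, 37 degree Celsius; luciferase detection reagent, 15 min lysis, CCD luminescence.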
Rango-impB inh – Rango-importin beta binding inhibition | 340,000 tested, 0.031% active | AID 540263 | Rango CFP/YFP FRET sensor + importin beta, 45 min | Potency, µM (series often up to 92.2 µM), for inactives: at the highest dose inhibition of complex formation; active = rising FRET ratio curve, often small or poorly fitted; inconclusive = mostly compound fluorescence or quenching in the first reads; inactive = flat curves in all reads;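 note: potency is the fitted concentration of half-maximal effect; 0% = DMSO wells and 100% = buffer wells lacking importin beta; nearly all actives have a fitted effect of over 15% in size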
Target sequence (Q14974 whole entry, looked up): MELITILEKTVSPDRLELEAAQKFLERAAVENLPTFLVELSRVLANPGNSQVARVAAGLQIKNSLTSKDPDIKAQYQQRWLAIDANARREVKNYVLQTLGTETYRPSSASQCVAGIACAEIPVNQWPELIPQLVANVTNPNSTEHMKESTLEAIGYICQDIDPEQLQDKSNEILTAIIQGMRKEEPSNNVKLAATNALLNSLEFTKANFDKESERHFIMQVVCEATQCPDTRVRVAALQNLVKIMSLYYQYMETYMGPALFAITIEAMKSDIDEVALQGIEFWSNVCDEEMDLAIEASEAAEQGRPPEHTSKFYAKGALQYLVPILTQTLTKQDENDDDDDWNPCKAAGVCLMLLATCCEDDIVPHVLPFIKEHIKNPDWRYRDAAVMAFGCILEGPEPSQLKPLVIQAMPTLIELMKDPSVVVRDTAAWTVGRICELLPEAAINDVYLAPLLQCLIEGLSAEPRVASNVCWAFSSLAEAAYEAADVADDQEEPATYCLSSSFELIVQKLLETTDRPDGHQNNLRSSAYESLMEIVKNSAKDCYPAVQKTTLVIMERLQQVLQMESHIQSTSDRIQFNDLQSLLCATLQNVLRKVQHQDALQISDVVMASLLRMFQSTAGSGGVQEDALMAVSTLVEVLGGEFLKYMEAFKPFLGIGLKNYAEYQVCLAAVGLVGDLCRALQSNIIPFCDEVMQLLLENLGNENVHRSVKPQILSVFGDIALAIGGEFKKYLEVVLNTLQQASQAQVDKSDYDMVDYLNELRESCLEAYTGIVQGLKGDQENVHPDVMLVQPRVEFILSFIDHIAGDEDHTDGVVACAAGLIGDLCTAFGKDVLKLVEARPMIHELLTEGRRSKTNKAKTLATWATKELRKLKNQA
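FRET biosensor Rango (snurportin 1 IBB between N-terminal EYFP and C-terminal Cerulean), 50 nM in PBS/1 mM DTT/0.02% Tween-20/0.1% BSA, preincubated 5 min RT with compound; 0.125 microM importin beta added, 45 min RT, CFP/YFP FRET ratio read.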
Rango dissoc inh – inhibitors of RanGTP-induced Rango-importin beta complex dissociation | O95149+P62826 | Biochemical FRET Rango-importin beta, RanGTP-induced dissociation | Potency, µM (top dose mostly 46.1 µM), for the others: at the highest dose activity change, negative = inhibition | 340,000 tested, 0.071% active; active means falling FRET ratio curve, often poorly fitted, with flat reads before Ran was added; inconclusive means other falling curves, or compound fluorescence or quenching; inactive means flat or rising ratio curve;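 note: potency is the fitted concentration of half-maximal effect; % of control where 0% means no effect; nearly all actives have a fitted effect of over 45% in size; -100% = wells without RanGTP and RCC1; the record marks most hits as doubtful in a second field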
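Two FRET readings bracket the reaction: one 5 min after compound meets Rango–importin beta, another 45 min after RanGTP-RCC1 (0.6 uM Ran, 0.2 uM RCC1, 2 mM GTP) is added. Only the second defines inhibition.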
GLA inh pH 4.5 – alpha-galactosidase A (human) inhibition, pH 4.5 | 230,000 tested, under 10 active | AID 1467 | activity change, negative = inhibition, % at 105 µM | purified enzyme, 4-MU-alpha-Gal fluorescence, pH 4.5; inconclusive = small, poorly fitted or top-dose-only inhibition, or a rising curve; inactive = flat fitted curve, though single readings scatter; no compound was filed as active;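 note: 0% = full activity with enzyme and -100% = basal without enzyme; dose as in the result columns while the protocol names 77 µM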
The depositor's hits bear a star; ? = inconclusive; · = not tested or not shown; & = joins results of further samples. An excerpt (hit frequency here may not be typical).

Rango dissoc inh | Rango-impB inh | GLA inh pH 4.5 | miR-21 reporter | mol
12.0% | 0.1% | 6.1 | -3.0% | Cc1ccc(/C=N/NC(=O)CNC(=O)c2cccs2)o1
-17.0% | -0.2% | 8.0 | -2.6% | CCCCNS(=O)(=O)c1ccc(OC)cc1
8.9% | 1.7% | -5.2 | 0.0% | CC(C)(Cc1ccc(O)cc1)NC(=O)CC(=O)N/N=C/c1ccc([N+](=O)[O-])cc1
-9.7% | -2.9% | -14.9 | -24.4% | Cc1ccc2nc(NC(=O)COC(=O)c3ccc(Br)o3)sc2c1
10.1% | -5.7% | -2.3 | -1.3% | O=c1c(C/C=C/c2ccccc2)c(O)ccn1Cc1cccc(Cl)c1
-0.1% | 2.0% | -2.8 | -2.6% | Clc1ccc(-c2nc3ccccn3c2CN2CCSCC2)cc1
-4.2% | 3.4% | 0.2 | 0.4% | O=C(c1ccc([N+](=O)[O-])s1)N1CCN(c2cccc(Cl)c2)CC1
-12.5% | 1.1% | · | · | COc1ccc(-c2ccc3c(c2)S(=O)(=O)c2cccc(C(=O)NCc4ccccc4Cl)c2C3=O)cc1OC
-1.4% | -2.6% | · | -0.8% | O=C(Cc1ncc(C(F)(F)F)cc1Cl)NCc1cccnc1
? | ? | -10.8 | 17.5% | N#C/C(=C\c1ccc(N2CCOCC2)o1)C(=O)NCC1CCCO1 (centres undefined)
? | -1.4% | · | 11.9% | CS(=O)(=O)N(CC(=O)NCCSCc1ccccc1Cl)c1ccccc1F
1.8% | -3.5% | · | -6.9% | NC(=O)CC(NC(=O)Cc1cccc2ccccc12)c1ccc(N2CCC(N3CCCCC3)CC2)c([N+](=O)[O-])c1 (centres undefined)
-12.0% | 0.1% | -1.6 | -7.7% | CCCCCCS(=O)Cc1ccccc1 (centres undefined)
10.1% | -1.2% | · | -0.7% | Cc1ccnc(Cc2ccccc2)n1
3.5% | -1.8% | 3.9 | -1.2% | CCOC(OCC)P(=O)(c1ccccc1)c1ccccc1
-11.0% | 4.2% | 2.5 | -9.9% | O=C(c1cccs1)N1CCN(C(=O)c2ccco2)c2ccccc2C1
-11.0% | -0.3% | 2.3 | -4.3% | O=[N+]([O-])c1ccc(N2CCCC2)cc1NCc1ccccc1
-1.5% | 1.0% | 2.6 | -0.4% | c1ccc(-c2nn[nH]n2)cc1
-14.4% | -0.6% | -0.5 | -2.8% | CCCC(=O)N/N=C1\CS(=O)(=O)N(C)c2ccsc21
-11.0% | 1.6% | · | · | CCCCCCCNC(=O)C1(CC2CC(c3cccc(Br)c3)=NO2)CCN(C(=O)Cc2ccc(F)cc2)CC1 (centres undefined)
· | · | -26.3 | -3.9% | CC(NC(=O)c1cc(Br)ccc1Br)c1ccccc1 (centres undefined)
7.1% | -2.9% | 3.7 | -5.7% | CC(C)NC(=O)CN1C(=O)C(=O)c2ccccc21
0.6% | -1.3% | -11.8 | 0.6% | CCc1cccc(CC)c1-n1c(SCC(=O)N2CCc3ccccc3C2)nnc1-c1cccnc1
0.7% | 2.8% | -1.1 | 16.1% | COc1ccc(C(=O)/C=C/c2ccccc2)c(OC)c1
-11.1% | 0.4% | -13.0 | -5.6% | Cc1ccc(Cn2nnc3c(=O)n(CC(=O)OCc4ccccc4)cnc32)cc1
0.3% | -0.3% | -0.5 | -15.4% | CN1CCN(c2nc(Nc3ccccc3)nc(N)c2[N+](=O)[O-])CC1
19.9% | 6.4% | -5.9 | -7.3% | Cc1cccc(C)c1NC(=O)C(c1ccccc1)N1CCN(C(=O)c2ccco2)CC1 (centres undefined)
-0.6% | -1.5% | -1.2 | 0.5% | COc1cc(NS(=O)(=O)c2ccc(F)cc2)c(OC)cc1NC(C)=O
6.0% | 1.2% | -9.5 | -14.3% | COc1ccc(/C=N/NC(=O)c2ccn[nH]2)cc1CN1CCOCC1
16.8% | -0.1% | 3.6 | -1.1% | COCc1cc(=O)[nH]c(/N=C(\N)Nc2ccccc2C)n1
-27.1% | -0.2% | -3.8 | 29.2% | N#CC1=C(N)Oc2c(ccc3cccnc23)C1c1cccnc1 (centres undefined)
1.8% | 3.9% | -0.5 | -4.1% | CCC(C)[C@H](NC(=O)Nc1cccc(Br)c1)C(=O)OC (some centres undefined)
? | ? | 7.6 | 0.4% | O=C(C1=NN(c2ccccc2)C2C(=O)N(c3ccccc3Cl)C(=O)C12)c1ccccc1 (centres undefined)
-0.3% | -3.0% | · | · | COc1ccc(NC(=O)Nc2ccc3c(c2)C(=O)N([C@H](C)CO)C[C@H](C)[C@@H](CN(C)C(=O)NC2CCCCC2)O3)cc1
3.3% | 3.2% | -2.2 | -10.0% | CCOC(=O)Cn1nnc(-c2cccc(OC)c2)n1
7.5% | -1.3% | · | 5.2% | CNC(=O)c1cc(S(=O)(=O)NC2CCCCCC2)ccc1C
1.8% | 4.6% | -2.9 | -2.3% | CC(C)N(Cc1nc(-c2ccccc2)no1)C(=O)CN1C(=O)c2ccccc2C1=O
0.4% | 0.5% | · | -25.2% | Cc1ccc(-c2ccc(OC(=O)c3ccc(=O)[nH]c3)c(C)c2)cc1
-0.3% | -0.5% | · | 0.6% | COc1ccc(NC(=O)CN(C)CC(=O)Nc2cccc(C(C)=O)c2)cc1
-3.4% | -0.7% | · | · | CCOc1ccc(S(=O)(=O)Nc2cc(NS(=O)(=O)c3ccc(OCC)cc3)cc(C(=O)O)c2)cc1
-10.6%&13.4% | -0.1%&-1.8% | -4.7 | · | COc1ccccc1N1CCN(CCN(C(=O)C2CCCCC2)c2ccccn2)CC1
-20.0% | 0.4% | 5.0 | -10.3% | C=CCOc1ccccc1/C=C/C(=O)O
-2.6% | -0.3% | -4.9 | 1.6% | O=C(COc1ccc(S(=O)(=O)NC2CCCCC2)cc1)N1CCN(c2ccc(F)cc2)CC1
57.7% | -0.1% | · | 0.5% | COc1ccc(C)cc1CN1C(=O)c2ccccc2C1=O
10.5% | -0.8% | -5.4 | 3.1% | Cc1cccc2nc(CSc3ncccc3C(=O)O)cn12
2.1% | -0.2% | · | 5.2% | CCOc1ccc(Nc2cc(C)nc3c(C)cccc23)cc1
3.5% | -1.8% | -17.7 | -39.0% | O=c1c2ccccc2nc(COc2ccccc2)n1/N=C/c1ccco1
1.0% | 0.5% | -0.3 | -13.4% | O=C(O)CCc1nc(-c2cccs2)no1
0.8% | 1.2% | -17.2 | -2.6% | O=C(O)CN1C2=NCCCN2c2ccccc21
35.8% | -2.6% | -2.2 | -14.2% | O=C(COC(=O)[C@@H]1CC(O)CN1S(=O)(=O)c1ccc([N+](=O)[O-])cc1)NC12CC3CC(CC(C3)C1)C2 (some centres undefined)
10.4% | 1.4% | · | 0.6% | O=C(Nc1ccc(F)cc1F)C1CCN(S(=O)(=O)c2cccnc2)CC1
-6.8% | -4.5% | 1.8 | -33.9% | C[C@]12C=CC(=O)C=C1CC[C@@H]1[C@@H]2[C@@H](O)C[C@@]2(C)[C@H]1CC[C@]2(O)C(=O)COC(=O)CCC(=O)O
? | ? | · | 3.7% | Cc1occc1C(=O)/C(C#N)=C/c1ccc(O)c(Br)c1
-1.1% | -0.1% | · | · | O=C(NC1CCCCC1)C1COc2ccccc2O1 (centres undefined)
1.4% | 5.0% | 0.6 | 0.5% | CCOCC(=O)Nc1cc(C(=O)OC)ccc1C(=O)OC
-7.5% | 3.8% | · | -0.7% | COc1cccc(CN2CCN(Cc3cc(OC)c(OC)cc3OC)CC2)c1
-3.4% | 8.5% | · | · | COc1ccc(CC(=O)Nc2ccccc2C(C)=O)cc1S(=O)(=O)N1CCOCC1
-7.9% | -2.2% | · | · | COc1ccc(NC(=O)C2CCOC2=O)cc1 (centres undefined)
? | ? | -3.6 | -5.2% | CC(=O)C1=C(C)NC(SCC(=O)c2ccccc2)=C(C#N)C1CC(C)C (centres undefined)
10.6% | -2.9% | · | · | CN(Cc1ccccc1)C(=O)COC(=O)Cc1ccc(Cl)cc1

5 compounds picked at random from the list so far, as already listed:
Rango dissoc inh | Rango-impB inh | GLA inh pH 4.5 | miR-21 reporter | mol
? | ? | 7.6 | 0.4% | O=C(C1=NN(c2ccccc2)C2C(=O)N(c3ccccc3Cl)C(=O)C12)c1ccccc1 (centres undefined)
? | ? | -3.6 | -5.2% | CC(=O)C1=C(C)NC(SCC(=O)c2ccccc2)=C(C#N)C1CC(C)C (centres undefined)
7.5% | -1.3% | · | 5.2% | CNC(=O)c1cc(S(=O)(=O)NC2CCCCCC2)ccc1C
-0.3% | -3.0% | · | · | COc1ccc(NC(=O)Nc2ccc3c(c2)C(=O)N([C@H](C)CO)C[C@H](C)[C@@H](CN(C)C(=O)NC2CCCCC2)O3)cc1
-6.8% | -4.5% | 1.8 | -33.9% | C[C@]12C=CC(=O)C=C1CC[C@@H]1[C@@H]2[C@@H](O)C[C@@]2(C)[C@H]1CC[C@]2(O)C(=O)COC(=O)CCC(=O)O

Further entries follow:
Rango dissoc inh | Rango-impB inh | GLA inh pH 4.5 | miR-21 reporter | mol
7.7% | -1.0% | 3.0 | -10.0% | Cc1cccc(C)c1OCC(=O)Nc1ccc(NC(=O)c2ccco2)cc1
-21.4% | 1.3% | 0.2 | -11.4% | O=C(CN1CCN(c2ccccn2)CC1)NC(=O)NC1CCCCC1
-22.4% | -2.8% | · | -5.6% | CCOc1ccc(NC(=O)N(c2ccccc2)c2ccccc2)cc1
? | -11.7% | ? | -0.7% | O=C(Oc1ccc2ccc(=O)oc2c1)c1cccs1
-6.3% | -1.1% | -3.2 | -2.1% | CC(=O)N1CCC2(CC1)C(C#N)=C(N)OC1=C2C(=O)CC(C)(C)C1
16.4% | -0.3% | · | 3.8% | O=C(c1ccc2c(=O)n(Cc3ccccc3)c(=S)[nH]c2c1)N1CCCC1
-8.3% | ? | 12.7 | 17.0% | Cc1nn(CCO)c(N)c1C1(O)C(=O)Nc2c(Cl)cc(Cl)cc21 (centres undefined)
0.7% | 1.4% | · | -30.9% | COC(=O)C1CCN(C(=O)/C=C/c2ccc3c(c2)OCO3)CC1
-8.3% | 0.9% | 7.8 | -18.9% | COc1ccc(NC(=O)Nc2cc3oc4ccccc4c3cc2OC)cc1
0.5% | -3.7% | -6.4 | -6.6% | Cc1nc2ccccc2nc1OCC(=O)Nc1ccc(F)cc1
0.5% | 0.1% | -0.9 | 11.4% | CCCc1c(C(=O)Nc2cc(C)on2)cnn1-c1ccccc1
13.1% | 4.8% | · | -2.1% | COC(=O)c1c(NC(=O)C(=O)N2CCCCC2)sc2c1CC(C)(C)OC2
-2.6% | -4.9% | 1.3 | -1.4% | CCC1CCCCN1C(=O)CSc1nnc(CNC(=O)COc2ccc(Cl)cc2)o1 (centres undefined)
4.5% | 1.9% | · | · | O=C(COC(=O)c1nc(Cl)ccc1Cl)NCCc1ccccc1
4.4% | 0.7% | -0.7 | -11.5% | COc1cc(C2c3c(-c4ccccc4)n[nH]c3C(=O)N2c2ccccc2)ccc1O (centres undefined)
11.2% | 0.0% | · | 4.7% | CC(=O)c1ccc(NS(=O)(=O)c2ccc3c(c2)N(C)CCO3)cc1
9.1% | 2.7% | -2.8 | -1.7% | CCCNC(=O)c1c(C)cc(=O)oc1C
0.4% | -0.3% | 2.8 | 1.4% | Cc1ccc(/C=N/Nc2ccc3c(C(F)(F)F)cc(C(F)(F)F)nc3n2)cc1
4.5% | -3.0% | · | 2.5%&3.7% | Cc1ccc2c(c1)cc1c(=O)n(CC(=O)N(C)c3ccccc3)nc(C)n12
-6.5% | 1.1% | · | -0.7% | CCS(=O)(=O)N1Cc2ccccc2CC1C(=O)NCc1cccc(OC)c1 (centres undefined)
3.9% | 4.4% | -4.6 | ? | CC1=C(C)/C(=N/OC(=O)c2cccc([N+](=O)[O-])c2)C=CC1=O
-4.8% | 3.4% | -1.5 | -6.9% | CC(C)CCC(CC(C)O)c1n[nH]c(=S)n1-c1ccccc1 (centres undefined)
2.06µM* | ? | 5.8 | -6.1% | CCNC(=O)N1c2ccc(OCC)cc2C(C)=CC1(C)C
-18.1% | -3.4% | -4.8 | -19.4% | O=C(Nc1ccc(OC(F)(F)F)cc1)C1=NCCN1
33.8% | 6.9% | -5.3 | 15.3% | COc1cccc(CNc2nc3ccccc3n2CCN2CCCCC2)c1
2.3% | 1.2% | -7.4 | -1.2% | Cn1nc(C(F)(F)F)c(C(=O)Nc2ccc(F)cc2F)c1Sc1cccc(C(F)(F)F)c1

Assay outcomes from PubChem.
